# Screening results as filed in PubChem BioAssay.
# KCNQ2 inh = KCNQ2 channel blockers in CHO-K1 cells – cell-based, FluxOR thallium flux, B-score, primary screen (AID 2156) | O88943 | 20 min; active compounds read low; only compounds with negative scores are shown here; some inactives read as strong as hits | B-score at 10 µM | 310,000 compounds, 1.1% hits;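 active means fluorescence ratio B-score at most minus 3 library SDs, with starting brightness B-score within 2 library SDs, cut at about -5.5 in these data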
# Target sequence (O88943 whole entry, looked up): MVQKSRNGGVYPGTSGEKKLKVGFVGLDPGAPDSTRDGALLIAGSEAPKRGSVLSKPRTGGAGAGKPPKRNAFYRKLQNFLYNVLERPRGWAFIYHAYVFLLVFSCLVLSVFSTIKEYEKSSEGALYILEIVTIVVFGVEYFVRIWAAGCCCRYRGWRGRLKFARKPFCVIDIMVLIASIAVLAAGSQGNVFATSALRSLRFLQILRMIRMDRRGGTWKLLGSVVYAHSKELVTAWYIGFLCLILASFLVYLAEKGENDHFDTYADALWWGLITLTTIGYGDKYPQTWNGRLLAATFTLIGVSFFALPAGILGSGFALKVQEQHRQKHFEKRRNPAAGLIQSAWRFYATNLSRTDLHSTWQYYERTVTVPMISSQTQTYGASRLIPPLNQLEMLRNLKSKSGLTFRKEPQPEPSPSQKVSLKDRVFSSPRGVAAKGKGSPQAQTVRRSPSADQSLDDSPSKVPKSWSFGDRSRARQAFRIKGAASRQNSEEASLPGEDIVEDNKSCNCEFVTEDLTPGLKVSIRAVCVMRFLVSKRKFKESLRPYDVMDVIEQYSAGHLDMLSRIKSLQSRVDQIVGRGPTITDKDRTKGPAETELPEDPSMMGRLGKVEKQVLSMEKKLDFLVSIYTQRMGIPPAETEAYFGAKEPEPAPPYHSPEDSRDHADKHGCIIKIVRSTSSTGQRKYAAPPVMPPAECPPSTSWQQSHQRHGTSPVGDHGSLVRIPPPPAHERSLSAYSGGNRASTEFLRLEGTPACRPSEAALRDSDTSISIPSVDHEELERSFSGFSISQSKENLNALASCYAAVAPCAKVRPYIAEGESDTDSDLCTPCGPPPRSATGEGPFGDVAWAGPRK
# KCNQ2 inh baseline = further read-out of KCNQ2 inh, marked with its call; B-score; measured here: initial fluorescence intensity artifact check;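 brightness before thallium and not channel activity; 0 = typical well and far values either way flag optical interference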
# Active calls of the source: *; i = inactive. These rows are one share of the data; the hit share may differ from the screen's.
# The first five records, to show the layout:
KCNQ2 inh,KCNQ2 inh baseline,compound
i,-0.74,CCOc1ccc(N2CC(C(=O)NCc3ccc(C)n3C)CC2=O)cc1 (configuration not stated)
i,-0.86,CC(=O)Nc1nnc(SCc2ccccc2F)s1
i,-0.24,Cc1ccc2cc(/C=C/C(=O)c3ccco3)c(Cl)nc2c1
i,-1.18,Cc1nc(NCc2ccccc2)c2cc[nH]c2n1
i,0.96,CC(C)(O)C(=O)NN(Cc1ccccc1)c1ccccc1

# The whole of this part, previewed entries included:
KCNQ2 inh,KCNQ2 inh baseline,compound
i,-0.74,CCOc1ccc(N2CC(C(=O)NCc3ccc(C)n3C)CC2=O)cc1 (configuration not stated)
i,-0.86,CC(=O)Nc1nnc(SCc2ccccc2F)s1
i,-0.24,Cc1ccc2cc(/C=C/C(=O)c3ccco3)c(Cl)nc2c1
i,-1.18,Cc1nc(NCc2ccccc2)c2cc[nH]c2n1
i,0.96,CC(C)(O)C(=O)NN(Cc1ccccc1)c1ccccc1
i,-0.38,CCn1c(SCC(=O)NC2CCCCC2)nnc1-c1cccs1
i,-0.17,O=C(OCC(=O)N1CCC(c2ccccc2)=N1)c1ccc([N+](=O)[O-])s1
i,-0.2,Cc1nc2cc(CO)ccc2n1C
i,0.08,Cc1occc1-c1nnc(SCC(=O)Nc2ccccc2)n1CCc1ccccc1
i,0.09,COc1ccc(C(c2nnnn2Cc2ccccc2)N2CCN(c3ccccc3)CC2)cc1 (configuration not stated)
i,1.43,C/C(=N\NC(=O)c1nnn(-c2nonc2N)c1CSc1ccc(Cl)cc1)c1ccco1
i,0.1,Cn1cc(C(=O)c2ccc(Cl)cc2Cl)cc1C(=O)N/N=C(\N)COc1ccccc1
i,-0.09,Cc1ccc(NC(=O)OCCN2CCN(Cc3ccccc3)CCC2=O)cc1C
i,0.03,CCOc1ccc(CN(CC)C(=O)c2ccc3c(c2)[nH]c(=O)c(=O)n3CC)cc1OC
i,2.79,Cc1ccc(NC(=O)N2CCCC(c3nc(-c4ccc(F)cc4)no3)C2)cc1 (configuration not stated)
i,2.18,C[C@H]1CN(CCc2ccccc2)C(=O)[C@@H]1CC(=O)NCc1ccccc1
i,1.29,Cn1c(CC(=O)Nc2ccccc2Cl)nnc1SCC(=O)NC1CCCCC1
i,-0.01,COc1ccc(S(=O)(=O)N2CCC(C(=O)NCc3ccncc3)CC2)cc1
i,0.08,COc1ccccc1-c1nnc(NC(=O)c2cccc(N3C(=O)CCC3=O)c2)o1
i,-0.24,COc1ccc(NC(=O)c2ccc(NCCCN3CCOCC3)c([N+](=O)[O-])c2)cc1
i,0.15,Cc1ccc(Cl)c2sc(NC(=O)C3=COCCO3)nc12
i,-1.33,CCCNC(=S)NCCN1CCCCC1
i,1.71,O=C(COc1ccc(S(=O)(=O)Nc2ccc(Cl)cc2)cc1)N1CCOCC1
i,0.57,Cc1oc(-c2ccc(Cl)cc2)nc1CN1CCC(C(=O)N2CCN(Cc3ccccc3)CC2)CC1
i,-3.64,COc1ccc(NC(=O)CN(C)C(=O)c2cn(-c3ccccc3)nc2-c2ccc(Cl)cc2)cc1
i,5.02,CN1CCc2c(sc3c2C(=O)NC(c2ccc(-c4cccc(Cl)c4)o2)N3)C1 (configuration not stated)
i,1.04,CC(C)=CCN1CCN(Cc2cnc(-c3ccccc3)s2)CC1CCO (configuration not stated)
i,-0.46,Cc1ccc2nsnc2c1S(=O)(=O)Nc1ccccc1C(=O)O
i,-0.26,COc1ccc(-c2nnn(CC(=O)c3c[nH]c4ccccc34)n2)cc1OC
i,1.05,CN(C)N1C(=O)CC(C)(c2ccc([N+](=O)[O-])cc2)C1=O (configuration not stated)
i,0.61,CCC/C=N/Nc1nc2ccccc2s1
i,-0.44,Cc1ccc(-c2nnc(Sc3nc4ccccc4o3)c3ccccc23)cc1
i,-0.12,N#Cc1ccc(N2Cc3ccccc3C2=NC(=O)c2cccs2)cc1
i,0.99,O=S(=O)(c1cc(Cl)ccc1Br)N1CCOCC1
i,-0.33,COCCCC1CCN(Cc2nc(Cc3ccccc3Cl)no2)CC1
i,1.39,CC1CC(C)CN(CCCNC(=O)COc2cc(=O)n(C)c3ccccc23)C1 (configuration not stated)
i,-0.68,O=C(CSc1nnc(C2CC2)n1CC1CCCO1)Nc1cccc(Cl)c1 (configuration not stated)
i,-0.74,Cc1cc(C(=O)Nc2cc(C)n(Cc3ccc(Cl)cc3)n2)no1
i,0.71,CCOC(=O)c1c(C)[nH]c(C(=O)NCc2ccco2)c1C
i,2.27,CC/C(=N\O)c1ccc(O)c(OC)c1
i,-0.01,Cc1oc(-c2cccc(Cl)c2)nc1CS(=O)(=O)CC(=O)NCCN1CCCC1
i,-2.25,CSCc1ccc(C(=O)N2CCC(N3CCC(C(=O)NC(C)C)CC3)CC2)o1
i,1.1,COc1ccc(-c2nc(N)n(C(=O)c3ccco3)n2)cc1
i,0.15,CN1CCN(NC(=O)/C=C/c2ccc(Br)cc2)CC1
i,0.7,Cc1cc(C)c(S(=O)(=O)N2CCCOC2CNC(=O)C(=O)NCCc2c[nH]c3ccccc23)c(C)c1 (configuration not stated)
i,0.73,Cc1ccc([N+](=O)[O-])cc1N=C(c1cccc([N+](=O)[O-])c1)N1CCOCC1
i,0.61,c1ccc2cc(OCCOCCOc3ccc4ccccc4c3)ccc2c1
i,2.89,CC(C)(C)c1ccc(C(=O)Nc2cccc3ncccc23)cc1
i,-0.14,CC(=O)Nc1ccc(S(=O)(=O)N2CCN(CCCOc3cc(C)ccc3C)CC2)cc1
i,1.16,COc1cc(/C=C/C(=O)O)ccc1OCc1ccccc1C#N
i,0.03,Cc1ccc(CN2C(=O)c3ccccc3NC2c2ccccn2)cc1 (configuration not stated)
i,0.46,Cc1ccc2nc(-c3ccccc3)cc(C(=O)N3CCN(c4ccccc4O)CC3)c2c1
i,0.15,C/C=C/c1ccc(OCC(=O)N(CCOC)c2c(N)n(CCCC)c(=O)[nH]c2=O)c(OC)c1
i,-1.31,CN(C)C(=O)C1C2NC(=S)N(c3cccc(Cl)c3)C1(C)Oc1ccc(Cl)cc12 (configuration not stated)
i,0.12,c1ccc(CNCc2ccco2)cc1
i,1.19,O=C1CCC(=O)N1Cc1c(Cl)cccc1Cl
i,-0.68,COc1ccccc1CNC(=O)C1CCN(S(=O)(=O)c2cccc3cccnc23)CC1
i,0.91,CC(Cc1cccnc1)NC(=O)c1cc(COc2ccc(F)cc2F)on1 (configuration not stated)
i,0.85,Cc1ccnc(NS(=O)(=O)c2ccc(Oc3ccccc3)cc2)c1
i,0.74,COc1ccc(C(=O)N2CCN(c3cnn(-c4ccccc4)c(=O)c3Cl)CC2)cc1

# Single records (already shown).
# CC(=O)Nc1ccc(S(=O)(=O)N2CCN(CCCOc3cc(C)ccc3C)CC2)cc1 in the list: KCNQ2 inh: i; KCNQ2 inh baseline: -0.14
# COc1ccc(C(=O)N2CCN(c3cnn(-c4ccccc4)c(=O)c3Cl)CC2)cc1 in the list: KCNQ2 inh: i; KCNQ2 inh baseline: 0.74
# Cc1ccc([N+](=O)[O-])cc1N=C(c1cccc([N+](=O)[O-])c1)N1CCOCC1 in the list: KCNQ2 inh: i; KCNQ2 inh baseline: 0.73

# New compounds follow.
KCNQ2 inh,KCNQ2 inh baseline,compound
i,-2.57,COc1ccccc1CN1CC(C(=O)NCCc2ccc(Cl)cc2)CC1=O (configuration not stated)
i,-1.4,COc1cccc(OCc2cc(C(=O)N3CCN(C)C(c4ccccc4)C3)no2)c1 (configuration not stated)
i,-0.02,CCc1nc2c(cnn2-c2ccc(F)cc2)c(=O)n1-c1ccc(N2CCC(C)CC2)cc1
i,-1.73,O=C(CC(=O)Nc1ccc(F)cc1F)Nc1ccc(F)cc1F
i,-0.32,COC(=O)C1=C[C@@H](C(=O)OC)C2C3=C(C(=O)C24CCCCC4)[C@H](C)n2c(=O)n(-c4ccccc4)c(=O)n2[C@@H]3C1 (some centres not stated)
i,0.27,Cc1nn(C)c2ncc(C(N)=O)c(Oc3cccnc3)c12
i,0.09,O=C(O)/C=C/c1ccc(S(=O)(=O)N2CCN(CCN3C(=O)C4C5C=CC(C5)C4C3=O)CC2)cc1 (configuration not stated)
i,0.3,Cc1cccc(C)c1Nc1nnc(SCC(=O)Nc2sccc2C#N)s1
i,0.84,Cc1ccc(C)c(NC(=O)CN(C)C(=O)c2cccc(S(=O)(=O)N(C)C)c2)c1
i,0.53,Cc1cc(C)cc(NS(=O)(=O)c2cc(Br)cnc2N)c1
i,-1.92,Cc1ccccc1NC(=O)CCS(=O)(=O)c1ccc(Br)cc1
i,0.62,O=C(COc1ccc(S(=O)(=O)N2CCCC2)cc1)Nc1ccc(F)cc1
i,0.32,COC(=O)c1ccc(OCC(O)CN2CCN(CC(O)COc3ccc(C(=O)OC)cc3)CC2)cc1 (configuration not stated)
i,-0.03,Oc1ccc(Br)cc1-c1nc2cnccn2c1NC1CCCC1
i,1.81,O=C1[C@@H]2C(c3cccnc3)=NO[C@@H]2C(=O)N1c1ccc(Cl)cc1Cl
i,-0.02,O=C(CC1CC2CCC1C2)Nc1nc(-c2ccccn2)cs1 (configuration not stated)
i,-0.3,O=C(NCc1ccccc1)C1=C[C@@H](c2ccc(C(F)(F)F)cc2)C[C@@H](OCCCCO)O1
i,1.69,Cc1ccc(NC(=O)CSc2ncn(-c3ccccc3)n2)cc1C
i,-1.84,CN1/C(=C\C(=O)COC(=O)CNC(=O)c2ccccc2F)C(C)(C)c2ccccc21
i,-0.61,Cc1cccc(NC(=S)N(CCCN2CCOCC2)Cc2ccco2)c1
i,-0.92,CN1C2CCC1CC(N(CCc1ccccc1)C(=O)c1ccc(Cl)cc1)C2 (configuration not stated)
i,0.4,CCOc1ccc(N2CC(C(=O)N3CCCc4ccccc43)CC2=O)cc1 (configuration not stated)
i,1.01,COc1ccc(/C=C2\SC(N3CCCCC3)=NC2=O)cc1
i,0.19,S=c1[nH]nc(-c2cccnc2)n1-c1ccccc1
i,0.35,Cc1cccc(-n2c(SCC(=O)N3CCC(C(=O)O)CC3)nc3ccccc3c2=O)c1C
i,2.37,COc1cc(C(=O)N/N=C2\CCS(=O)(=O)c3ccc(F)cc32)cc(OC)c1OC
i,-0.13,COc1ccc(CN2CCN(C(=O)c3cc(OC)c(OC)c(OC)c3)CC2)cc1OC
i,2,CC(=O)C(Sc1ncnc2sc3c(c12)CCCC3)C(C)=O
i,-0.75,CCOP(=O)(c1ccccc1)C(O)c1ccccc1 (configuration not stated)
i,-1.24,Cc1noc(C)c1CSCC(=O)NCCN1C(=O)S/C(=C\c2ccccc2F)C1=O
i,0.24,O=C(Nc1c2c(nc3ccccc13)CCCC2)c1cccc([N+](=O)[O-])c1
i,-0.54,COc1ccc(CCNC(=O)CC2Nc3ccccc3NC2=O)cc1 (configuration not stated)
i,1.63,CCC1(C)Cc2c(sc3c2c(=O)n(C)c2nnc(SCCc4ccccc4)n32)CO1 (configuration not stated)
i,-0.03,COc1ccc(NC(=O)CSc2nnc(Cc3ccc(C)cc3)c(=O)n2N)cc1OC
i,0.85,CCOC(=O)Cn1c(=O)c2c(nc3n2CCCCN3c2ccc(C)cc2)n(C)c1=O
i,0.34,Cc1ccc(CN2CCSCC2)cc1
i,0.51,COc1ccc(Nc2ccc([N+](=O)[O-])cc2[N+](=O)[O-])cc1
i,-1.58,Cc1noc(/C=C/c2ccco2)c1S(=O)(=O)N1CCC(C(=O)NCc2ccco2)CC1
i,1.18,COc1ccc(N2CCN(C(=O)CCNS(=O)(=O)c3cccs3)CC2)cc1
i,0.31,O=C(NC(=S)Nc1ccc(CN2CCCCC2)cc1)c1cc2ccccc2o1

# A different layout for two compounds above:
CC(=O)C(Sc1ncnc2sc3c(c12)CCCC3)C(C)=O
  KCNQ2 inh = i | KCNQ2 inh baseline = 2
CCOP(=O)(c1ccccc1)C(O)c1ccccc1 (configuration not stated)
  KCNQ2 inh = i | KCNQ2 inh baseline = -0.75

# Carrying on:
KCNQ2 inh,KCNQ2 inh baseline,compound
i,0.01,S=C(NC1CCCCC1)N1CCN(C/C=C/c2ccccc2)CC1
i,1.7,COC(=O)CCc1c(C)c(C#N)c2nc3ccccc3n2c1N1CCCC1
i,0.57,COc1ccc(N(CC(=O)N/N=C/c2cccnc2)S(=O)(=O)c2ccc(C)cc2)cc1OC
i,-0.18,Cc1cc(C)nc(Nc2n[nH]c(-c3ccc(C(C)(C)C)cc3)n2)n1
i,1.09,COC(=O)c1ccc(C(=O)NC2CCSc3ccccc32)cc1 (configuration not stated)
i,0.95,OCCCCNc1cccc2ccccc12
i,-0.38,COc1ccc(CCNC(=O)CCC(=O)N2CCOc3ccc(Cl)cc32)cc1OC
i,-0.67,CCOC(=O)C1=C(CN2CCN(c3ccc(F)cc3)CC2)NC(=O)NC1c1cccs1 (configuration not stated)
i,-0.53,CCOC(=O)C1(CC)NC(c2ccc(OC)cc2OC)C2C(=O)N(C)C(=O)C21 (configuration not stated)
i,-0.29,Cc1cc(NC(=O)CSCC(=O)Nc2nc3ccccc3[nH]2)no1
i,-0.05,CCCN1C(=O)/C(=C/c2ccc(C)o2)SC1=Nc1ccc(OC)cc1
i,-2.25,CO/N=C/c1c(-c2ccc(Cl)cc2)nc2cc(C)ccn12
i,0.38,CCn1c(C)c(C)c2cc(C(=O)NCCCN3CCCCC3C)ccc21 (configuration not stated)
i,-0.5,O=C(O)C1CC1C(=O)Nc1nc2c(Cl)cccc2s1 (configuration not stated)
i,3.28,O=C(Nc1ccccc1N1CCOCC1)c1cccc2c(Br)cccc12
i,-1.85,CCCCCC(=O)N1CC2(CC(c3cccc(NC(=O)CC(c4ccccc4)c4ccccc4)c3)=NO2)C[C@@H]1C(N)=O (some centres not stated)
i,-0.07,COc1ccc(C(=S)N2CCN(c3cccc(Cl)c3)CC2)cc1
i,0.1,COc1ccc2oc(C)c(C(N)=O)c2c1
